GIV-Gai inh: GIV-Galpha-i interaction inhibition; P08753; Galpha-i3/FITC-GIV peptide fluorescence polarization, 90 min; hits give low values; scaled: aluminum fluoride 0%, vehicle 100%; percent of control (FP), % (concentration not given with the values); 0.42% of 210,000 active;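 active means replicate mean at 85% of control or lower, very high polarization wells dropped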;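 further: wells of about 15 µL received 100 nL stock; the first replicate is given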
Target sequence (P08753 whole entry, looked up): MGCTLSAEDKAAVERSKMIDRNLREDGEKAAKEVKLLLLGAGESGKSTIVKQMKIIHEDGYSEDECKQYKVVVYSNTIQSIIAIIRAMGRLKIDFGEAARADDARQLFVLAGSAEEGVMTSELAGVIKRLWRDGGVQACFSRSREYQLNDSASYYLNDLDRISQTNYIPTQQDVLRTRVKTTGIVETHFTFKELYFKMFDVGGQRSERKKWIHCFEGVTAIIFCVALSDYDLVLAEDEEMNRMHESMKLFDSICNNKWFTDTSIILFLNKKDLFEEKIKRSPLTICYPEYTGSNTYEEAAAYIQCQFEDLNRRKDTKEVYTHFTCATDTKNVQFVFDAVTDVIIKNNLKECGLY
HCMV UL50-53 inh: cytomegalovirus nuclear egress complex inhibition. HTRF UL50-UL53 interaction, normalized percent inhibition. inhibition, % (concentration not given with the values). 0.15% of 190,000 active;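 active means both replicates at 50% or more, plus weaker picks with an unusually low signal ratio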;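 further: stock transfer was 100 nL into about 20 µL; 0% = negative control wells and 100% = wells with untagged competitor protein; inactives centre near -12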
Sa growth inh: S. aureus growth inhibition. S. aureus RN4220 growth, OD600, 20 h, 42 °C; hits give low values. relative growth, % (no concentration beside the values). 0.53% of 170,000 active. AID 720641;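 active means growth at 42 °C up to 50% and 20 or more points under that at 30 °C, or under 10% at both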;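 further: 300 nL library stock went into each well; scaled to the means of positive and negative controls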
Sa growth inh second temp: second read-out of Sa growth inh, no call of its own (marks repeat the call); relative growth, %; measured here: growth at 30 °C;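 optical density after 20 h as mean of two plates; 100% = untreated growth and lower means inhibition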
* = called active by the depositor; nt = not tested or not shown; & = joins results of further samples.

SMILES | GIV-Gai inh | HCMV UL50-53 inh | Sa growth inh | Sa growth inh second temp
CCOC(=O)c1cn[nH]c1S(=O)(=O)Nc1ccccc1 | 102 | 8 | nt | nt
Cn1cnc2c(=O)oc3ccc(S(=O)(=O)N4CCCCC4c4cccnc4)cc3c21 (centres undefined) | 91 | -7 | 88 | 85
COc1ccc(-c2nc(SCC(=O)NCC3CCCO3)c(-c3ccc(C)cc3)[nH]2)cc1OC (centres undefined) | 100 | -13 | 115 | 76
COc1ccccc1C1CC(c2ccc(Br)cc2)=NN1C(=O)c1ccncc1 (centres undefined) | 106 | -17 | nt | nt
Cc1ccc(C(C)C)c(OCC(=O)N2CCC(c3nc4ccccc4o3)CC2)c1 | 103 | 8 | 88 | 57
COC(=O)Cn1c(=O)c2c(n(Cc3ccccc3)c1=O)NCC2=O | nt | 15 | 98 | 102
CSc1ccccc1N=Cc1c(O)[nH]c2ccccc12 | 96 | -15 | 96 | 114
CC(C)C1C(=O)OC2c3ccccc3C(=O)N21 (centres undefined) | 100 | nt | 86 | 90
O=C(O)c1nccnc1C(=O)NCc1ccccc1 | 97 | nt | 85 | 88
COC(CNC(=O)Cn1ncc2c(=O)oc3ccccc3c21)OC | 99 | nt | 88 | 85
CCOC(=O)C1C(=O)CC(O)(c2ccccc2)CC1c1ccccc1 (centres undefined) | 100 | -1 | 107 | 84
Cc1nc(C(F)(F)F)ccc1C(=O)NCCc1cccs1 | 106 | nt | 101 | 87
CCCCNC(=O)c1ccc2c(c1)N(Cc1ccc(F)cc1)C(=O)c1ccccc1S2=O (centres undefined) | 100 | -30 | 91 | 81
Cn1cnc(S(=O)(=O)Nc2cccc(F)c2)c1 | 107 | 17 | nt | nt
O=C(CCSc1ccccc1)c1cccs1 | 100 | -30 | 81 | 84
CN(C)S(=O)(=O)c1ccc(C(=O)NNc2nc3ccccc3s2)cc1 | nt | -10 | 84 | 89
COc1ccc(NC(=O)CSc2nc3ccccc3n2CC(=O)N(C)c2ccc(F)cc2)cc1 | 101 | nt | 98 | 80
Cc1ccc(NC(=O)CSc2ncc3c(n2)-c2ccccc2N(Cc2cccc(F)c2)S3(=O)=O)cc1F | 99 | nt | 84 | 91
CCOc1ccc(S(=O)(=O)N(CC(=O)NCc2ccccc2)c2ccccc2)cc1 | 103 | nt | 96 | 86
CCOC(=O)c1c(C)[nH]c(C)c1S(=O)(=O)N1CCCC(C(=O)Nc2ncccc2C)C1 (centres undefined) | 104&110 | 17 | 98 | 90

Given with values under each structure: part of the list above
Order of results: GIV-Gai inh	HCMV UL50-53 inh	Sa growth inh	Sa growth inh second temp
CSc1ccccc1N=Cc1c(O)[nH]c2ccccc12
→ 96	-15	96	114
CC(C)C1C(=O)OC2c3ccccc3C(=O)N21 (centres undefined)
→ 100	nt	86	90
O=C(O)c1nccnc1C(=O)NCc1ccccc1
→ 97	nt	85	88
COC(CNC(=O)Cn1ncc2c(=O)oc3ccccc3c21)OC
→ 99	nt	88	85
CCOC(=O)C1C(=O)CC(O)(c2ccccc2)CC1c1ccccc1 (centres undefined)
→ 100	-1	107	84
Cc1nc(C(F)(F)F)ccc1C(=O)NCCc1cccs1
→ 106	nt	101	87
CCCCNC(=O)c1ccc2c(c1)N(Cc1ccc(F)cc1)C(=O)c1ccccc1S2=O (centres undefined)
→ 100	-30	91	81

Carrying on.
SMILES | GIV-Gai inh | HCMV UL50-53 inh | Sa growth inh | Sa growth inh second temp
CC(C)OC(=O)CNc1n[nH]c(=O)[nH]c1=O | 100 | -13 | 92 | 94
CCC1CN(C(=O)NCc2ccc(C)cc2)c2ccccc2S1 (centres undefined) | 104 | nt | 59 | 75
Nc1cc(=O)[nH]c(SCC(=O)N2CCCCC2)n1 | 115 | -9 | 111 | 106
Cc1nc2ccccc2c(=O)n1/N=C/c1ccccn1 | nt | 10 | 102 | 99
COc1ccc(C2CC(c3ccccc3)=NN2S(=O)(=O)c2ccccc2)cc1 (centres undefined) | 123 | -1 | nt | nt
Cc1nn(Cc2ccccc2)c(Cl)c1/C=C/C(=O)OCc1nnc(-c2ccccc2)o1 | nt | -13 | 85 | 95
Cc1ccc(C)c(N(C)C(=O)c2cc3c(s2)-c2ccccc2SC3)c1 | 102 | nt | 96 | 89
CC1(C)CC(=O)C(CS(=O)(=O)c2ccccc2)=C(O)C1 | 102 | -10 | nt | nt
COc1ccc(C)cc1NC(=O)C1CCN(S(=O)(=O)Cc2ccccc2)CC1 | 104 | -27 | 99 | 88
N#C/C(C(N)=O)=C1/N=C(N)c2ccccc21 | nt | -55 | 79 | 91
Cc1sc(NC(=O)COc2cccc(F)c2)c(C#N)c1C | nt | -27 | 102 | 69
O=C(O)c1cc2c([nH]c1=O)CCCCC2 | 104 | -18 | 95 | 97
Cc1ccc2c(c1)c1c(n2C)/C(=N/NC(N)=S)CCC1 | 101 | -18 | 98 | 91
O=C(NCCc1c[nH]c2ccccc12)c1c(Cl)nc2sccn12 | nt | -24 | 100 | 92
O=C(CN1C(=O)C2(OCCO2)c2cc(Br)ccc21)c1ccc(Br)cc1 | 100 | 5 | 100 | 93
O=C(COc1ccc2ccccc2c1)Nc1c2c(nn1-c1ccc(F)cc1)CS(=O)(=O)C2 | 102 | nt | 88 | 95
O=C(c1ccco1)N1C(=O)c2cccc3c(S(=O)(=O)N4CCCC4)ccc1c23 | 112 | -89 | 108 | 103
Cc1ccc(C(=O)NC(C(=O)N(C)C)=C(Cl)Cl)cc1 | nt | -17 | 127 | 89
N#Cc1cc2c(nc1SCC(=O)c1ccccc1)CCC2 | nt | 20 | 99 | 92
S=C(Nc1ccc(CN2CCOCC2)cc1)Nc1ccccc1Cl | 98 | nt | 118 | 83
CN(C)/C=N/n1cnc2ccccc2c1=O | nt | 14 | 88 | 90
COc1cc(-c2onc3ccc(Cl)cc23)ccc1O | 107 | -11 | 93 | 42
Cc1cc(C)c2c(C)nn(C3CCCCC3)c2n1 | 101 | -18 | 86 | 79
Nc1nccnc1C(=O)OCC(=O)NC1CC1 | nt | -35 | 97 | 96
N#Cc1cccn1Cc1ccccc1Cl | 105 | nt | 104 | 83
CC1=NNC(=O)C1CCC(=O)N/N=C/c1ccccc1 (centres undefined) | 109 | 13 | 98 | 100
COCCN1Cc2cc3cc4c(cc3nc2SC1=Nc1cccc(OC)c1)OCO4 | 107 | -9 | 97 | 92
NC(=O)c1c(NC(=O)COC(=O)Cc2ccsc2)sc2c1CCCC2 | nt | -5 | 100 | 97
CCCCC1(O)C(=O)c2ccccc2N(C)C1=O (centres undefined) | 103 | -6 | 102 | 87
CCCn1c(=O)/c(=C2/C=Cc3ccccc3N2C)s/c1=C1\SC(=S)NC1=O | 99 | -36 | 94 | 81
Cc1nn(CC(=O)NCc2ccc(Cl)cc2)c(=O)c2cc3sccc3n12 | 107 | 0 | 78 | 100
CCCNC(=O)c1cc(Cl)cc(Cl)c1 | 104 | 6 | nt | nt
COc1ccc2c(c1)c1ncn(CCc3ccc(Cl)cc3)c(=O)c1n2C | 101&105 | 16 | 100 | 96
O=C(NC1CCCCC1)c1cccc(N2C(=O)CCS2(=O)=O)c1 | 103 | -23 | nt | nt
Cc1ccccc1CSc1nnc2[nH]c(=O)cc(-c3ccccc3)n12 | 100 | nt | 103 | 90
CCOC(=O)N1CCN(C(=O)CSc2ncc(C(=O)O)n2-c2ccc(F)cc2)CC1 | nt | -14 | 86 | 90
CCCN1C(=O)c2[nH]nc(-c3ccc(OC)cc3)c2C1c1ccccn1 (centres undefined) | 105 | -3 | 111 | 81
CCN(CC)C(CNS(=O)(=O)c1ccc(C)cc1)c1ccccc1 (centres undefined) | 101 | 13 | nt | nt
COC(=O)c1nc2ccccc2nc1N1CCN(C2CCCCC2)CC1 | 96 | -56 | nt | nt
Cc1ccc2c(c1)C(c1ccccc1)N(C(=O)c1ccc(S(=O)(=O)N3CCCCC3)cc1)CC(=O)N2 (centres undefined) | 103 | -46 | 90 | 90
Cc1ccc(N=Cc2ccc(Br)s2)c(C)c1 | nt | -11 | 92 | 75
Cc1csc(NC(=O)c2ccccc2C(=O)O)c1-c1nc2ccccc2s1 | 99 | -91 | 54 | 23
O=C(c1cccc(S(=O)(=O)Nc2ccccn2)c1)N1CCCc2ccccc21 | 100 | -16 | 95 | 108
COc1cc(C2C(C(=O)OCC3CCCO3)=C(C)NC3=C2C(=O)CCC3)ccc1OCc1ccccc1 (centres undefined) | 99 | -8 | nt | nt
CC1CCCCN1S(=O)(=O)c1ccc2c(c1)CCC(=O)N2CC(=O)N1CCc2ccccc21 (centres undefined) | 108 | -18 | nt | nt
O=C(Cn1c(=O)cnc2ccccc21)NC1CCCCC1 | nt | 5 | 100 | 102
O=c1c2ccccc2nc2ccc(N3CCOCC3)nn12 | 104 | -66 | 92 | 84
COc1cccc(NC(=O)c2oc3ccccc3c2NC(=O)c2ccc(F)c(F)c2)c1 | 107 | -5 | 107 | 88
FC(F)(F)c1cccc(-c2nc3ccccc3[nH]2)c1 | nt | -5 | 109 | 87
COCCOc1ccc(C(F)(F)F)cc1NC(=O)c1ccno1 | nt | 6 | 91 | 101
Oc1c(Cl)cc(Cl)c2cccnc12 | nt | -32&-35&-86 | 65 | 35
CNC(=O)c1ccc(-c2nc(CN3CCN(C(=O)Nc4ccc5c(c4)OCO5)CC3)c(C)o2)cc1 | 110 | -11 | nt | nt
COc1ccc(C2C(C(=O)N(C)C)=C(C)Nc3nc4ccccc4n32)cc1OC (centres undefined) | 97 | 7 | 98 | 94
COC(=O)Oc1ccc2c(C)cc(=O)oc2c1 | 97 | -1 | 75 | 100
COc1ccccc1CNC(=O)CCS(=O)(=O)c1ccc2c(c1)CCN2C(C)=O | 101 | nt | 112 | 90
O=C(Cn1ncc2c(Cl)cccc21)NCc1cccc(Br)c1 | 101 | 14 | 90 | 88
Cc1nn(-c2ccccc2)c2sc(-c3noc(-c4ccccn4)n3)cc12 | 108 | -1 | nt | nt
O=C(O)CCCc1ccc2ccc3cccc4ccc1c2c34 | 101 | nt | 104 | 63
c1ccc(CN(Cc2ccccc2)c2c3c(nc4ncnn24)CCC3)cc1 | 106 | -16 | 107 | 91
CC(C)C(NC(=O)C1CCCCC1)C(=O)N1CCN(c2ccccn2)CC1 (centres undefined) | 103 | nt | 115 | 102

Further entries:
SMILES | GIV-Gai inh | HCMV UL50-53 inh | Sa growth inh | Sa growth inh second temp
COc1ccc(Nc2cc(C(=O)NCCc3ccc(Cl)cc3)c3ccccc3n2)cc1OC | 97 | 2 | nt | nt
COc1ccc(C(=O)CSc2nnc(Cc3cc(=O)[nH]c(=O)[nH]3)n2-c2cccc(OC)c2)cc1 | 103 | -29 | 85 | 73
CC1CCN(S(=O)(=O)c2cccc(C(=O)NC(C)C)c2)CC1 | 102 | -11 | 116 | 95
CCN1CCN(C(=O)Cn2cnc3oc(C)c(C)c3c2=O)CC1 | 102 | -33 | nt | nt
CN(C)c1ccc(C(CNC(=O)c2ccccc2)N2CCCC2)cc1 (centres undefined) | 113 | 5 | 100 | 99
Cc1ccc2onc(CNC(=O)N3CCN(c4cc(Cl)ccc4C)CC3)c2c1 | 97 | nt | 83 | 86

Part of the list above, comma-delimited.
Molecule,GIV-Gai inh,HCMV UL50-53 inh,Sa growth inh,Sa growth inh second temp
CC1CCN(S(=O)(=O)c2cccc(C(=O)NC(C)C)c2)CC1,102,-11,116,95
CCN1CCN(C(=O)Cn2cnc3oc(C)c(C)c3c2=O)CC1,102,-33,nt,nt

Looked up by structure from the list above:
SMILES | GIV-Gai inh | HCMV UL50-53 inh | Sa growth inh | Sa growth inh second temp
CN(C)c1ccc(C(CNC(=O)c2ccccc2)N2CCCC2)cc1 (centres undefined) | 113 | 5 | 100 | 99
COc1ccc(C(=O)CSc2nnc(Cc3cc(=O)[nH]c(=O)[nH]3)n2-c2cccc(OC)c2)cc1 | 103 | -29 | 85 | 73
Cc1ccc2onc(CNC(=O)N3CCN(c4cc(Cl)ccc4C)CC3)c2c1 | 97 | nt | 83 | 86
CCN1CCN(C(=O)Cn2cnc3oc(C)c(C)c3c2=O)CC1 | 102 | -33 | nt | nt
CC1CCN(S(=O)(=O)c2cccc(C(=O)NC(C)C)c2)CC1 | 102 | -11 | 116 | 95
COc1ccc(Nc2cc(C(=O)NCCc3ccc(Cl)cc3)c3ccccc3n2)cc1OC | 97 | 2 | nt | nt

Screens from PubChem BioAssay.
